Assay outcomes (PubChem)
NS1 function inh: qHTS Assay for Inhibitors of Influenza NS1 Protein Function. S. cerevisiae slowed by influenza A NS1, growth recovery by OD600. AID 2326, 2010. 270,000 tested, 0.4% active. Potency, µM (series often up to 46.1 µM), inactives show at the top dose activity, positive = more growth; active means well fitted rising curve with a large enough effect; inconclusive means small, poorly fitted or top-dose-only effect; inactive means no such curve, though single readings can be large or run the other way; further: nearly all actives have a fitted effect of over 50% in size
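A cell-based growth assay was used: compounds that relieve NS1-induced slow growth of budding yeast raise OD600. Assay medium was yeast nitrogen base with ammonium sulphate and -URA supplement, pH 6.0, with 2% galactose.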
RE007 growth inh: qHTS Assay for Inhibitors of the HIV-1 protein Vpr | Potency, µM (highest dose often 92.2 µM), for the others: top-dose activity change, negative = less growth | 360,000 tested, 0.21% active | S. pombe RE007 Vpr strain, BacTiter-Glo ATP luminescence, 24 h; control for the full effect not named in the record; active = well fitted falling curve with a large enough effect; inconclusive = small, poorly fitted or top-dose-only effect; inactive = no such curve, though single readings can be large or run the other way;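 further: on the % scale 0 is the no-effect control and ±100 the full control effect; nearly all actives have a fitted effect of over 50% in size; the assay follows cell death caused by Vpr and the record does not say whether a fall means rescue or toxicity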
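Fission yeast strain RE007, carrying one chromosomally integrated HIV-1 vpr copy, was seeded at OD 0.01 in PMG+AL medium with 23 nL pinned compound. After 24 h at 30 °C and 99% humidity, viability was read by BacTiter-Glo luminescence.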
Cruzain inh Det: qHTS Assay for Promiscuous and Specific Inhibitors of Cruzain (with detergent); Potency, µM, without a hit: max response, negative = inhibition, usual class: inhibitors; 200,000 tested, 0.43% active; purified cruzain, Z-FR-AMC fluorescence, 0.01% Triton;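 further: plate controls were neutral wells for no effect and buffer without enzyme for full effect; nearly all actives have a fitted effect of over 40% in size; top concentration of the series not given in the record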
Target sequence (P25779 123-467 limits assumed): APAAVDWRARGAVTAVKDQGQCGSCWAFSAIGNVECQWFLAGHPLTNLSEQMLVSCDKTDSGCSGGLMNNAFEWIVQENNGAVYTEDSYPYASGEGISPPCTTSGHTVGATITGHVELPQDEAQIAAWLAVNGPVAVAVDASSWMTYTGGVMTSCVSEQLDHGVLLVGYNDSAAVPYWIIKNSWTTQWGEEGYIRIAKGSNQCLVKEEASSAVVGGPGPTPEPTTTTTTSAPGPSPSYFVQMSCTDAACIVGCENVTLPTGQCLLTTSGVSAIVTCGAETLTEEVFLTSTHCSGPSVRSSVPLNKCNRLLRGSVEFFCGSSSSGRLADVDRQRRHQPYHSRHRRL
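15 min RT preincubation of 1.5 nM cruzain with compound, then 2 uM Z-FR-AMC added; kinetic AMC fluorescence, 60 s delta. Triton X-100 0.01%, pH 5.5.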
Marburg entry inh: qHTS for inhibitors of binding or entry into cells for Marburg Virus; 300,000 tested, 1.8% active; Marburg virus pseudotyped entry inhibition, cell reporter; control for the full effect not named in the record; about a third of the inactives were read at about 46 µM; AID 540276, 2011; Potency, µM (series often up to 37.8 µM), inactives show at the top dose activity change, negative = inhibition, hits mostly inhibitors; active = well fitted inhibition curve with a large enough effect; inconclusive = small, poorly fitted or top-dose-only effect, or effect the other way; inactive = flat fitted curve, though single readings scatter; tested in HEK293 cells; about a fifth of its hits are not listed in these tables; further: on the % scale 0 is the no-effect control and ±100 the full control effect; luciferase read-out
StopGo reporter: High Throughput Screening for Foot and Mouth Disease Virus Antivirals. human cells with a luciferase reporter of 2A StopGo recoding; control for the full effect not named in the record. Potency, µM (top dose mostly 57.9 µM), for the others: top-dose signal change, negative = less light. 410,000 tested, 1.2% active. AID 1159524, 2015; active = well fitted falling curve with a large enough effect; inconclusive = small, poorly fitted or top-dose-only effect; inactive = no such curve, though single readings can be large or run the other way; tested in HEK293T cells; further: on the % scale 0 is the no-effect control and ±100 the full control effect; nearly all actives have a fitted effect of over 45% in size; luciferase light after 4 h
Cruzain inh noDet: qHTS Assay for Promiscuous and Specific Inhibitors of Cruzain (without detergent). Cruzipain (Trypanosoma cruzi), P25779. Potency, µM, for the others: max response, negative = inhibition, most hits filed as inhibitors. purified cruzain, Z-FR-AMC fluorescence, no detergent. 200,000 tested, 2.3% active;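 further: plate controls were enzyme without inhibitor for no effect and buffer without enzyme for full effect; nearly all actives have a fitted effect of over 40% in size; top concentration of the series not given in the record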
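Purified cruzain at 1.5 nM, pre-incubated 15 min with compound at room temperature in 100 mM sodium acetate pH 5.5, 5 mM DTT, 0.00005% Triton X-100. Reaction started with 2 uM Z-FR-AMC; AMC fluorescence increase over 60 s gives rate.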
LASV entry inh: qHTS for Inhibitors of binding or entry into cells for Lassa Virus. Lassa virus pseudotype entry inhibition, cell reporter; control for the full effect not named in the record. Potency, µM (titrated, usually from 37.9 µM), for the others: at the highest dose activity change, negative = inhibition, actives largely listed as inhibitors. 300,000 tested, 1.2% active; active means well fitted inhibition curve with a large enough effect; inconclusive means small, poorly fitted or top-dose-only effect, or effect the other way; inactive means flat fitted curve, though single readings scatter; tested in HEK293 cells; further: on the % scale 0 is the no-effect control and ±100 the full control effect; nearly all actives have a fitted effect of over 50% in size; luciferase read-out
SARS PLpro yeast: qHTS of Yeast-based Assay for SARS-CoV PLP; S. cerevisiae expressing SARS-CoV PLpro, growth rescue; control for the full effect not named in the record; Potency, µM (top dose mostly 32.9 µM), for inactives: top-dose activity, positive = growth rescue; 330,000 tested, 0.19% active; AID 485353, 2010; active means well fitted rising curve with a large enough effect; inconclusive means small, poorly fitted or top-dose-only effect; inactive means no such curve, though single readings can be large or run the other way; further: 0% is about no effect; nearly all actives have a fitted effect of over 55% in size; growth read by luminescence after 48 h
The depositor's hits bear a star; ? = inconclusive; nt = not tested or not shown; & = joins results of further samples; [ ] = remark or other dose. Unless noted, the call rests on the fitted dose curve; in most records, active means well fitted curve in the direction sought with a large enough effect; inconclusive means small, poorly fitted or top-dose-only effect, or another doubt; inactive means no such curve, though single readings can be large; an effect the other way counts as inactive or inconclusive. Potency means the concentration at half of the fitted maximal effect.

SMILES	NS1 function inh	RE007 growth inh	Cruzain inh Det	Marburg entry inh	StopGo reporter	Cruzain inh noDet	LASV entry inh	SARS PLpro yeast
COc1ccc(C(=O)N2CCC(N3CCN(c4ccccc4)CC3)CC2)cc1	-4%	1%	4.0%	12%	-6%	-4%	-4%	13%
COC(=O)C1=C(C)N(Cc2cccnc2)C(=O)/C1=C\c1sccc1C	-6%	-21%	nt	7%[46.1 µM]	-12%	nt	-3%[46.1 µM]	-1%
CC1(C)Cc2ccccc2C(=NCCCCCC(=O)O)N1	2%	nt	-1.5%	nt	nt	-7%	nt	29%
COc1ccc(C(=O)/C=C\N2CCOCC2)cc1	-100%	5%	-8.4%	15%	50%[activator]	-8%	-9%	-9%
Cc1ccc(NC(=O)CCc2c(C)nn(-c3ccc(N4CCCCC4)nn3)c2C)cc1F	-27%	-19%	2.3%	-9%&-9%[46.1 µM]	18%&0%	?	?	-10%
O=C(CSc1nnc(-c2ccco2)o1)c1ccccc1	-4%	-29%	-6.6%	?	61%[activator]	16µM*	10%	0%
COC(=O)CCC(=O)Nc1nnc(C(F)(F)F)s1	-4%	-6%	3.8%	9%[46.1 µM]	6%	-2%	7%	6%
O=C(Nc1ccc(-c2ccccc2)cc1)c1ccco1	nt	1%	nt	?	-6%	nt	0%[46.1 µM]	-12%
COc1ccc(OC)c(CCNC(=O)c2cc3c(s2)-c2c(C)cccc2OC3)c1	nt	nt	-12%	12%[46.1 µM]	-22%	?	nt	nt
Cc1ccc2cc(COC(=O)c3ccncc3)c(=O)[nH]c2c1	-6%	7%	-1.8%	2%	11%	4%	14%	-5%
CC(=O)Nc1cccc2cc(O)ccc12	nt	1%	nt	13%[46.1 µM]	-5%	nt	11%[46.1 µM]	nt
Cc1nc(SCC(=O)Nc2nc3ccccc3s2)c(C#N)c(C)c1C	16%	11%	-7.6%	?	0.1µM*	?	?	13%
Cn1cccc1/C=N/NC(=O)c1sc2ccccc2c1Cl	-51%	-23%	-6.0%	16%	37%[activator]	-6%	-21%	-3%
Cc1ccc(-n2ncc3c2ncn2c(-c4ccncc4)nnc32)cc1	0%	nt	0.8%	nt	nt	3%	nt	-1%
Cc1ccc(C(O)CN2C3=NCCCN3c3ccccc32)cc1 (stereo unspecified)	3%	-14%	-1.2%	?	nt	5%	-26%	20%
COCCOC(=O)c1c(C)n(C)c2ccc(OC(=O)N3CCOCC3)cc12	-6%	2%	2.6%	-3%	-24%	14%	-15%	8%
CCc1ccccc1S(=O)(=O)Cc1ccc(C(=O)NCC2CCCO2)o1 (stereo unspecified)	-7%	34%	2.5%	5%	-12%	12%	-6%	7%
COc1cc(C(C)=O)ccc1OCC(=O)N1CCc2ccccc2C1	8%	-14%	nt	-1%[46.1 µM]	-4%	nt	-11%	9%
CCNC(=O)CSC1=N/C(=C\c2ccc(O)c(OCC)c2)C(=O)N1c1ccc(OC(F)F)cc1	11%	3%	nt	9%[46.1 µM]	12%	nt	-8%[46.1 µM]	-3%
CC(=O)Nc1cc2c(cc1NC(=O)c1cnccn1)OCCO2	1%	17%	6.3%	0%	0%	-1%	11%	4%
COc1ccc(NS(=O)(=O)c2ccc(S(=O)(=O)N3CCCC3)cc2)cc1	6%	-20%	-1.2%	?	-4%	-2%	-26%	0%
COc1cccc(/C=N/c2sc(Cc3ccccc3)c(C)c2C(N)=O)c1O	14%	5%	-3.1%	-5%	-23%	?	-30%	-19%
Cc1cccc(-c2noc(-c3cccnc3NCc3ccco3)n2)c1	nt	nt	-15%	-16%[46.1 µM]	31%[activator]	-4%	0%[46.1 µM]	nt
O=C(NCc1ccccc1Cl)[C@@H]1CCCN1S(=O)(=O)c1ccc(Cl)cc1	nt	1%	nt	-9%	0%	nt	-15%	10%
COc1ccccc1CNC(=O)COC(=O)c1ccc(C)c(S(=O)(=O)N2CCCCC2)c1	16%	-6%	nt	16%[46.1 µM]	-13%	nt	-18%[46.1 µM]	-1%

The last four compounds of the section above lead into the next.
SMILES	NS1 function inh	RE007 growth inh	Cruzain inh Det	Marburg entry inh	StopGo reporter	Cruzain inh noDet	LASV entry inh	SARS PLpro yeast
COc1cccc(/C=N/c2sc(Cc3ccccc3)c(C)c2C(N)=O)c1O	14%	5%	-3.1%	-5%	-23%	?	-30%	-19%
Cc1cccc(-c2noc(-c3cccnc3NCc3ccco3)n2)c1	nt	nt	-15%	-16%[46.1 µM]	31%[activator]	-4%	0%[46.1 µM]	nt
O=C(NCc1ccccc1Cl)[C@@H]1CCCN1S(=O)(=O)c1ccc(Cl)cc1	nt	1%	nt	-9%	0%	nt	-15%	10%
COc1ccccc1CNC(=O)COC(=O)c1ccc(C)c(S(=O)(=O)N2CCCCC2)c1	16%	-6%	nt	16%[46.1 µM]	-13%	nt	-18%[46.1 µM]	-1%
COc1ccc(C2NC3=C(CCC3)C3(C#N)C(OC)(OC)N=C(N)C23C#N)cc1 (stereo unspecified)	15%	-14%	5.2%	-6%	?	1%	6%	1%
O=C(CCCN1C(=O)c2cccc3cccc(c23)C1=O)NCc1ccco1	4%	-2%	nt	nt	18%	nt	nt	0%
COC(=O)c1cnc2c(c(C)nn2C)c1OC	5%	-9%	nt	1%[14.2 µM]	5%	nt	12%	0%
CSc1nnc(C)c(=O)n1COC(=O)c1ccc(S(=O)(=O)N(C)C)cc1	6%	14%	-2.3%	0%	-21%	1%	-1%	15%
Cc1cc(C)nc(NS(=O)(=O)c2ccc(NC(=O)c3ccc(S(=O)(=O)N4CCOCC4)cc3)cc2)n1	5%	10%	1.7%	7%	34%[activator]	7%	4%	3%
C=CCn1c(C)cc(C(=O)COC(=O)c2ccc3c(c2)NC(=O)CS3)c1C	13%	19%	-14%	11µM*	?	?	?	20%
O=[N+]([O-])c1cc(Cl)c(O)c2ncccc12	nt	?	nt	?	-30%	nt	?	-25%
O=C(O)CCC(=O)Nc1ccc(F)cc1	8%	-2%	3.6%	0%	-1%	-3%	-7%	1%
Cc1ccc(NC(=O)CN2C(=O)NC(Cc3c[nH]c4ccccc34)C2=O)cc1S(=O)(=O)N1CCCCC1 (stereo unspecified)	14%	-12%	-8.0%	?	?	-26%	-5%	20%
Cc1ccccc1N(CC(=O)NCCc1ccccc1)C(=O)CCC(=O)Nc1ccccn1	2%	-24%	nt	?	9%	nt	?	2%
COc1cc2[nH]c(=S)n(Cc3ccc(C)cc3)c(=O)c2cc1OC	nt	7%	nt	?	0%	nt	-30%[46.1 µM]	4%
Cc1ccc2nc(CSc3nnc(-c4ccco4)n3-c3ccccc3)cc(=O)n2c1	0%	28%	nt	5%	-2%	nt	26%	nt
Clc1ccccc1CN1CCN(CCCc2ccccc2)CC1	nt	-11%	nt	?	-19%	nt	?	-2%
O=C(NCc1ccc(Cl)c(Cl)c1)c1cccnc1	-14%	-6%	-2.5%	-8%	-28%	5%	-7%	-4%
CSc1ccccc1NC(=O)COc1ccc(Cl)cc1C	-6%	-11%	-7.9%	17%	-9%	-4%	15%	-64%
CC(=O)c1c(C)[nH]c2ccccc2c1=O	2%	-7%	3.6%	7%	7%	-6%	1%	?
COc1ccccc1CNc1nc(-c2ccco2)nn1S(C)(=O)=O	nt	nt	-1.8%	?	7%	5%	24%[46.1 µM]	nt
CCOC(=O)c1c(NC(=O)CSc2nnc3c(n2)[nH]c2ccc(F)cc23)sc(C(C)=O)c1C	17%	0%	4.0%	-3%	17%	1%	-22%	1%
Cc1cc(C)n(-c2nc(N(C)C)nc(N(C)C)n2)n1	-1%	-10%	-0.5%	-11%&-11%&-11%	-3%	10%	1%	19%
Cc1ccccc1-n1c(/C=C/c2ccccn2)nc2ccccc2c1=O	-44%	2%	nt	nt	0%	nt	nt	-3%
CC(=O)n1cc([C@@H]2C=C(C(=O)N3CCOCC3)O[C@H](OCCCCO)C2)c2ccccc21	0%	11%	nt	nt	-14%	nt	nt	2%
Cn1c(CN2CCOCC2)nc2cc(NC(=O)COc3ccccc3)ccc21	4%	-13%	nt	-17%[46.1 µM]	?	nt	nt	0%
COc1cc2c(cc1OC)C(c1cccc(Cl)c1Cl)CC(=O)N2 (stereo unspecified)	8%	14%	nt	nt	-17%	nt	nt	4%
NCC1CCN(c2nc3ccccc3c3c2CCCC3)CC1	nt	-13%	nt	?	?	nt	7%	nt
CC(C)N1CCCC(CNC(=O)CCc2nnc(CCCCc3ccccc3)o2)C1 (stereo unspecified)	-1%	-12%	nt	-13%[46.1 µM]	-8%	nt	5%[46.1 µM]	0%
CC(CNC(=O)c1ccc2c(c1)nc1n2CCOC1)c1ccccc1 (stereo unspecified)	nt	nt	4.3%	nt	34%[activator]	0%	?	nt
CCOC(CCn1c(SCC(=O)NC2CCCC2)nc2ccccc2c1=O)OCC	-1%	4%	nt	?	-8%	nt	-3%	2%

Filtered by structure, those above containing an NH in an aromatic ring
SMILES	NS1 function inh	RE007 growth inh	Cruzain inh Det	Marburg entry inh	StopGo reporter	Cruzain inh noDet	LASV entry inh	SARS PLpro yeast
Cc1ccc2cc(COC(=O)c3ccncc3)c(=O)[nH]c2c1	-6%	7%	-1.8%	2%	11%	4%	14%	-5%
Cc1ccc(NC(=O)CN2C(=O)NC(Cc3c[nH]c4ccccc34)C2=O)cc1S(=O)(=O)N1CCCCC1 (stereo unspecified)	14%	-12%	-8.0%	?	?	-26%	-5%	20%
COc1cc2[nH]c(=S)n(Cc3ccc(C)cc3)c(=O)c2cc1OC	nt	7%	nt	?	0%	nt	-30%[46.1 µM]	4%
CC(=O)c1c(C)[nH]c2ccccc2c1=O	2%	-7%	3.6%	7%	7%	-6%	1%	?
CCOC(=O)c1c(NC(=O)CSc2nnc3c(n2)[nH]c2ccc(F)cc23)sc(C(C)=O)c1C	17%	0%	4.0%	-3%	17%	1%	-22%	1%
